TRPV1 potentiator = human TRPV1 potentiation | Q8NER1 | TRPV1-expressing cells, Fluo-8 calcium influx, capsaicin EC20 potentiation; host cell line not named in the record; control for the full effect not named in the record | potentiation, % at 8.33 µM | actives 0.02% (n = 320,000) | AID 540277; active means potentiation above 80%; inconclusive means 30% to 80%; inactive means below 30%; note: 0% is about no effect
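TRPV1-expressing cells were cultured overnight at 35.5C and loaded with Fluo-8 calcium dye for 40 to 90 min at room temperature. After a 10 s baseline, compound was added and calcium influx was read kinetically for 3 min (ex 480/em 520 nm).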
CtBP-E1A inh = blocks the CtBP interaction with E1A. AID 651724. activity change, % (test concentration not listed). AlphaScreen GST-E1A/His-CtBP binding, 1536-well; active compounds read low; control for the full effect not named in the record. actives 0.49% (n = 340,000); in the data active means activity change below about -65%; inconclusive means about -30% to -65%; inactive means above about -30%; note: % is set by controls: 0 for no effect and ±100 for the full control effect
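Homogeneous bead-based format: GST-tagged E1A captured on glutathione donor beads, His-tagged CtBP on nickel acceptor beads; compounds precede bead addition by 2 h at 37 °C.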
D2 agonist = agonists of human D2 dopamine receptor (beta-arrestin); actives 0.084% (n = 360,000); P14416; DiscoveRx PathHunter D2 beta-arrestin, luminescence, 90 min; 100% = 57 uM dopamine signal; activation, % (no concentration beside the values); in the data active = activation above about 40%; inconclusive = about 15% to 40%; inactive = below about 15%; note: compound concentration not given in the record; the text of the record calls up to 30% inactive
Target sequence (P14416 whole entry, looked up): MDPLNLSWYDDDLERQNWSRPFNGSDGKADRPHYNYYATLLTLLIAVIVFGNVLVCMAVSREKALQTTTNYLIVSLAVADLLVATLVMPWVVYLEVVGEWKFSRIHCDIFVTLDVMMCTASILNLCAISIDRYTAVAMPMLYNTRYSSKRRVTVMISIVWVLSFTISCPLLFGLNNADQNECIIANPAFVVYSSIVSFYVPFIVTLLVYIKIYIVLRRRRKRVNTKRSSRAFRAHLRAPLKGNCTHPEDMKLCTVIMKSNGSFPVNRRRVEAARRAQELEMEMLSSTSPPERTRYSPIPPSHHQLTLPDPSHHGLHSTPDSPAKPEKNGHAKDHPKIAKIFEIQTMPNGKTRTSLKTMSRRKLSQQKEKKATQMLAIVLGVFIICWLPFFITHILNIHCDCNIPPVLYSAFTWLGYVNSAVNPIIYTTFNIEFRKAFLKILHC
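DiscoveRx PathHunter D2 beta-arrestin cells (2,100/well) attached overnight, then compound-stimulated 90 min at 37 C in HBSS/10 mM HEPES/0.1% Tween-20 buffer; beta-galactosidase complementation read by luminescence after 1 h at ambient temperature. Dopamine 57 uM final (EC100) as control.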
Six1-Eya2 inh = blocks human Six1 binding to Eya2; Q15475+O00167; AlphaScreen GST-Six1/His-Eya2 binding, biochemical; active compounds read low; control for the full effect not named in the record; activity change, % (no concentration beside the values); actives 0.56% (n = 360,000); AID 651725; in the data active = activity change below about -65%; inconclusive = about -30% to -65%; inactive = above about -30%; note: % is set by controls: 0 for no effect and ±100 for the full control effect
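AlphaScreen with GST-Six1 and His-Eya2 (5X mix: 250 nM and 500 nM), glutathione donor and nickel acceptor beads; buffer 50 mM Tris pH 8.0, 300 mM NaCl, 1 mM TCEP; 1 h at 37 C in the dark.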
Sfp PPTase inh = blocks B. subtilis Sfp PPTase activity; Q9F4F7; Biochemical Sfp PPTase activity, qHTS; Potency, µM, for the others: max response, negative = inhibition, most hits filed as inhibitors; actives 3.5% (n = 310,000); AID 1490; active = well fitted inhibition curve with a large enough effect; inconclusive = small, poorly fitted or top-dose-only effect, or another doubt; inactive = no such curve, though single readings can be large or run the other way;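 note: the enzyme is Sfp with the accession as filed and its product quenches rhodamine fluorescence; potency is the fitted concentration of half-maximal effect; 0% = enzyme reaction without inhibitor and -100% = no enzyme wells; top concentration of the series not given in the record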
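With Hepes-Na pH 7.6 buffer containing 10 mM MgCl2, Sfp (15 nM) modified BHQ-2-YbbR (12.5 uM) using rhodamine-CoA (5 uM). Two reads 30 minutes apart at 525/598 nm yielded each well's rate.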
D2 PAM = human D2 receptor positive allosteric modulation; potentiation, % (concentration not given with the values); P14416; AID 624464; actives 0.23% (n = 360,000); DiscoveRx D2 beta-arrestin cells, luminescence, 90 min; 100% = 57 uM dopamine signal; active = potentiation of 50% or more; inconclusive = 30% to 50%; inactive = 30% or less;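 note: compound concentration not given in the record; tested on top of an EC20 dose of dopamine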
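PathHunter D2 cells, attached overnight at 37 deg C, received compound in DMSO plus dopamine at EC20 (50 nM final) for 90 min at 37 deg C. Beta-arrestin recruitment was read as luminescence after 1 h with detection reagent at ambient temperature.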
PINK1 modulator = PINK1 expression modulation; PINK1 immunofluorescence, high-content cytometry, 24 h; Potency, µM (highest dose often 76.6 µM), inactives show at the highest dose activation (PINK1 increase), actives largely listed as activators; actives 0.2% (n = 410,000); AID 624263; active = well fitted activation curve with a large enough effect; inconclusive = small, poorly fitted or top-dose-only effect; inactive = flat fitted curve, though single readings scatter; cell line not stated here;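 note: potency is the fitted concentration of half-maximal effect; % of control where 0% means no effect; nearly all actives have a fitted effect of over 65% in size; a mitochondrial uncoupler was the plate control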
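Measures PINK1 amount and localization on or inside mitochondria by immunofluorescence. Stable cells get compounds at 5 concentrations for 24 hours before fixation and staining; CCCP controls included.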
* marks the source's active call; other numbers are inactive results; ? = inconclusive; . = no result given; & = joins results of further samples; [ ] = another dose, or the depositor's remark.

SMILES | TRPV1 potentiator | CtBP-E1A inh | D2 agonist | Six1-Eya2 inh | Sfp PPTase inh | D2 PAM | PINK1 modulator
COC(=O)C1CCN(c2ccc(Cl)nn2)CC1 | -1 | 3 | -0.8 | 6 | 18% | -3 | 1.0%
c1csc(-c2nc(CN3CCSCC3)cs2)c1 | -12 | -5 | -4.3 | -21 | 1% | -13 | 1.7%
Cc1ccsc1/C=N/NC(=O)Cc1cccn1C | 18 | -13 | -2.9 | -16 | 2% | -29 | -0.4%
NC(=O)CC(NC(=O)c1ccc(Br)cc1)c1ccc(N2CCC(Br)CC2)c([N+](=O)[O-])c1 (stereo not given) | -10 | -1 | -2.0 | -6 | ? | -9 | 6.1%
COc1ccc(S(=O)(=O)Nc2c(F)cccc2F)cc1 | 1 | 6 | -1.7 | 6 | 14% | -1 | 2.9%
Cc1ccc(C(=O)NCCCN2CCOCC2)cc1S(=O)(=O)N1CCOCC1 | 18 | 7 | 0.4 | 10 | . | 0 | 0.0%
C[C@@H]1CN([C@@H](C)CO)C(=O)CCCn2nncc2CO[C@H]1CN(C)S(=O)(=O)c1cccc(C#N)c1 | . | 4 | -0.6 | -4 | . | . | -0.6%
COc1ccccc1/C=C/C(=O)OCC(=O)Nc1ccccc1Sc1ccccc1 | ? | 14 | 2.3 | 23 | 0% | 4 | 1.6%
CCCCN(CCCC)CCCN1CC(=O)N2[C@@H](Cc3c([nH]c4ccccc34)C2(C)C)C1=O | 10 | 2 | 0.2 | -4 | 2% | -4 | 0.6%
Cc1ccc(-c2cc(C(=O)N/N=C/c3ccccc3O)n[nH]2)o1 | 8 | ? | -1.4 | ? | 27% | -14 | 13%
CC1Cc2nc(SCC(=O)N3CCOCC3)n(C)c(=O)c2S1 (stereo not given) | -2 | -6 | -0.4 | 1 | 4% | 8 | -0.7%
Cn1nc(N)nc1N1CCN(c2ccc(F)cc2)CC1 | -28 | -1 | 0.4 | 0 | 18% | 2 | 1.2%
CC1(C)CC(NC(=O)c2ccccc2C(=O)NC2CC(C)(C)NC(C)(C)C2)CC(C)(C)N1 | 3 | 10 | -5.6 | 0 | 9% | -3 | 0.6%
Cc1ccc(S(=O)(=O)N2CCCCC2)cc1NC(=O)c1c(-c2ccccc2)noc1C | -4 | 13 | -3.6 | 5 | . | -6 | 7.7%
CCN(CC)S(=O)(=O)c1ccc(Cl)c(NC(=O)COC(=O)/C=C/c2cc(OC)c(OC)c(OC)c2)c1 | 23 | 7 | 0.1 | -15 | 10% | -4 | 3.4%
CCN1C(=NCC(C)C)N[C@@H](c2cccc(F)c2)C(C(=O)OC)=C1C | -7&-4 | -2 | -1.7 | 1 | 1%&0% | -11 | -0.7%
COc1ccc(/C=N/NC(=O)CCn2c3ccccc3c3ccccc32)cc1O | -14 | 7 | -1.7 | -12 | 10% | 9 | ?
COc1ccc(N2C(=O)CC(Cc3ccc(Br)cc3)C2=O)cc1 (stereo not given) | 3 | . | 4.3 | 1 | 2% | ? | 0.1%
CCN1C(=O)[C@H]2[C@@H](c3ccc(-c4ccc(F)cc4)cc3)N[C@@](Cc3ccccc3)(C(=O)OC)[C@H]2C1=O | -17 | . | 0.6 | -16 | . | -9 | 0.2%
CCCn1c(=S)[nH]c2cc(C(=O)NCC3CCCO3)ccc2c1=O (stereo not given) | -12 | 6 | 0.7 | 0 | 2% | -4 | 9.8%
CC(c1ccco1)N(C(=O)CSc1ccc(Br)cc1)c1ccccn1 (stereo not given) | -15 | -2 | -3.7 | -7 | 9% | -6 | -0.3%
COc1ccc(OCCN2CCC(C(=O)NC(c3ccccn3)c3ccccc3OC)CC2)cc1 (stereo not given) | . | -2 | -4.5 | -2 | . | -17 | 1.9%
Cc1ccc(NC(=O)CN(c2ccccc2)S(=O)(=O)N(C)C)cc1 | -8 | -1 | -4.1 | -4 | -19% | -10 | -0.4%
O=C(NCCCN1CCN(c2ccccc2F)CC1)C1CC(=O)N(C2CCCC2)C1 (stereo not given) | -6 | 2 | 6.5 | -2 | 14% | -2 | 0.3%
CC(Oc1ccc(Cl)cc1Cl)C(=O)Nc1ccc(O)cc1 (stereo not given) | -7 | . | 8.6 | -2 | ? | -2 | 2.2%
Cc1n[nH]c(=O)c2c(NC(=O)CSc3ncccn3)oc(C)c12 | 7 | -1 | -3.9 | -3 | . | -16 | -0.6%
C=CCOC(=O)C1=C[C@H](C2CC2)[C@@H](CCCO)[C@H](OCC)O1 | -8 | 5 | -0.4 | 1 | 21% | 3 | -1.1%
C=C[C@H]1C(C(=O)OCC)=CC[C@@H](c2ccccc2)N1S(=O)(=O)c1ccc(C)cc1 | . | 7 | -6.3 | 1 | . | 1 | 5.6%
Cc1ccc(-c2c(C)n([O-])c3c([n+]2=O)CCC3)o1 | -1 | 6 | -2.1 | 10 | -3% | -11 | -1.4%
N#Cc1ccccc1OCC(=O)OCC(=O)c1ccc2c(c1)NC(=O)CO2 | 1 | 7 | -3.1 | 6 | 7% | -1 | 0.5%
O=[N+]([O-])c1ccccc1/C=C/CN1CCCC(CO)C1 (stereo not given) | 23 | -3 | -3.4 | -12 | 2% | -12 | -0.9%
O=[N+]([O-])c1ccccc1S(=O)(=O)N1CCCCC1 | 3 | -14 | 7.5 | -3 | -1% | -8 | 7.3%
Cc1ccc(SCC(=O)Nc2cccc(C(=O)NC(C)(C)C)c2)cc1 | 4 | 10 | -8.9 | -4 | 23% | -17 | 0.7%
O=C(CCC(=O)Nc1ccc(F)cc1)N/N=C/c1cc([N+](=O)[O-])ccc1O | 14 | -86* | -7.2 | ? | 4% | -14 | 1.3%
COc1cc(SC)ccc1C(=O)Nc1c(Cl)cncc1Cl | -3 | 1 | 2.2 | 1 | 16% | -3 | 0.3%
Cn1nnnc1SCC(=O)N1CCN(c2ccccc2)CC1 | -2 | -2 | 0.4 | 14 | -4% | -8 | 2.0%
Cc1cc(Br)c2c(c1)C1(OCCO1)C(=O)N2 | 18 | . | -5.0 | -1 | 9% | -28 | -1.1%
COc1ccc(CNC(=O)CCSc2nc(-c3ccc4c(c3)OCO4)cc(C(F)(F)F)n2)cc1 | 3 | 8 | -4.7 | 9 | 79µM* | 6 | -1.2%
Cc1c(C(=O)N2C[C@@H](C)O[C@@H](C)C2)oc2c(F)cccc12 | -21 | . | -4.7 | -5 | 3% | -3 | 6.6%
CC(=O)Nc1ccccc1C(=O)C(=O)Nc1cccc(F)c1 | . | 1 | -5.0 | 9 | . | -21 | -0.7%
O=C(NCCSCc1ccccc1)c1ccc(C2SCC(=O)N2Cc2ccccc2)cc1 (stereo not given) | 7 | 0 | 6.1 | -2 | -3% | 0 | -8.2%[38.3 µM]
Cc1cccc(Cc2nnc(CCC(=O)NCc3cnc4ccccn34)o2)c1 | 0 | 12 | -2.7 | 7 | 11% | -2 | 0.5%
CCCSC1C(C)=C(C)C(=O)N1Cc1ccccc1 (stereo not given) | -1 | . | -2.0 | 0 | -1% | -5 | 2.4%
S=C(Nc1ccccc1)N1CCN(c2ccccc2)CC1 | . | -6 | -0.1 | -9 | . | -4 | -0.8%
COCc1cc(C)nc(SCC(=O)Nc2ccc3c(c2)OCCO3)c1C#N | 7 | -2 | -4.4 | -24 | 5% | -7 | 0.4%
O=C(NCCN1CCOCC1)c1cc2sccc2n1Cc1ccc(Cl)cc1 | -9 | 0 | -0.4 | -11 | -6% | -20 | ?
COc1ccc(C(c2nnnn2C2CCCC2)N2CCC(C(N)=O)CC2)c(OC)c1 (stereo not given) | 4 | 5 | 1.4 | 5 | 13% | -5 | -2.4%
COc1cc(C)ccc1OCCOc1c(Cl)cc(Cl)cc1Cl | 4 | 15 | 0.6 | 29 | 6% | -11 | 13%
CCCn1c(SCC(=O)N2CCc3ccccc3C2)nc2c1c(=O)n(C)c(=O)n2C | -7 | 0 | -1.4 | 3 | 15% | -7 | 0.9%[38.3 µM]
COc1ccc(NC(=O)c2ccccc2OCc2c(C)noc2C)cc1OC | -2 | 4 | 0.6 | -3 | 11% | -9 | 0.9%
CN(CC(=O)NC(=O)NCc1ccccc1)Cc1ccc(Cl)cc1 | 8 | -13 | -3.4 | 3 | -13% | -14 | 0.6%
CCC(C)NC(=O)[C@H]1N2C(=O)c3c(ccc(OC)c3OC)C2SC1(C)C (stereo not given in full) | 1 | 13 | -4.6 | 1 | -2% | -3 | 6.4%
Nc1c(NCCN2CCCCC2)c2ccccc2oc1=O | -6 | . | ? | -12 | -29% | 19 | -0.9%
COc1ccc(CCNc2ncnc3c2nnn3Cc2ccccc2)cc1OC | -25 | -22 | 4.6 | -13 | 17% | 1 | 1.1%
COc1ccccc1C(=O)NCCC(=O)NCCOc1ccccc1 | 5 | 5 | -1.5 | 5 | 2% | -3 | 7.3%
Cc1[nH]c2ccccc2c1C(O)c1ccncc1 (stereo not given) | 6 | 2 | -1.6 | -4 | 21% | -6 | -1.0%
CCOC(=O)c1sc(NC(=O)CN2CCN(c3ccc(OC)cc3)CC2)nc1C | 4 | ? | 1.0 | -22 | 4% | -10 | -0.1%
COc1ccc(NC(=O)c2cc(-c3cccs3)on2)cc1 | 6 | -6 | -4.4 | -5 | 3% | -8 | 2.8%
OCc1csc(=Nc2ccccc2)n1-c1ccccc1 | 6 | -2 | -4.9 | -4 | -2% | -22 | -0.7%
Cc1ccccc1N1C(=O)C2C3C=CC(CC3)C2C1=O (stereo not given) | 2 | 4 | -1.1 | -4 | -6% | -2 | 0.6%

Looked up one by one from the entries so far (four):
SMILES | TRPV1 potentiator | CtBP-E1A inh | D2 agonist | Six1-Eya2 inh | Sfp PPTase inh | D2 PAM | PINK1 modulator
Nc1c(NCCN2CCCCC2)c2ccccc2oc1=O | -6 | . | ? | -12 | -29% | 19 | -0.9%
COc1ccccc1C(=O)NCCC(=O)NCCOc1ccccc1 | 5 | 5 | -1.5 | 5 | 2% | -3 | 7.3%
OCc1csc(=Nc2ccccc2)n1-c1ccccc1 | 6 | -2 | -4.9 | -4 | -2% | -22 | -0.7%
COc1ccc(NC(=O)c2ccccc2OCc2c(C)noc2C)cc1OC | -2 | 4 | 0.6 | -3 | 11% | -9 | 0.9%

Screens as filed in PubChem.
